Sa growth 42C = S. aureus growth inhibition | S. aureus RN4220 growth, OD600, 20 h, 42 °C; hits give low values | relative growth, % (no concentration beside the values) | hit rate 0.53% among 170,000 | AID 720641;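 active = growth at 42 °C up to 50% and 20 or more points under that at 30 °C, or under 10% at both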;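 note: 300 nL library stock went into each well; scaled to the means of positive and negative controls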
HCMV NEC inh = disrupts HCMV UL50-UL53 complex binding. hit rate 0.15% among 190,000. inhibition, % (no concentration beside the values). HTRF UL50-UL53 interaction, normalized percent inhibition. AID 1918969;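 active = both replicates at 50% or more, plus weaker picks with an unusually low signal ratio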;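 note: stock transfer was 100 nL into about 20 µL; 0% = negative control wells and 100% = wells with untagged competitor protein; inactives centre near -12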
GIV Gai3 FP = inhibitors of GIV GBA-motif binding to rat Galpha-i3. P08753. AID 1224905. percent of control (FP), % (no concentration beside the values). Galpha-i3/FITC-GIV peptide fluorescence polarization, 90 min; hits give low values; scaled: aluminum fluoride 0%, vehicle 100%. hit rate 0.42% among 210,000;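 active = replicate mean at 85% of control or lower, very high polarization wells dropped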;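 note: wells of about 15 µL received 100 nL stock; the first replicate is given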
Target sequence (P08753 whole entry, looked up): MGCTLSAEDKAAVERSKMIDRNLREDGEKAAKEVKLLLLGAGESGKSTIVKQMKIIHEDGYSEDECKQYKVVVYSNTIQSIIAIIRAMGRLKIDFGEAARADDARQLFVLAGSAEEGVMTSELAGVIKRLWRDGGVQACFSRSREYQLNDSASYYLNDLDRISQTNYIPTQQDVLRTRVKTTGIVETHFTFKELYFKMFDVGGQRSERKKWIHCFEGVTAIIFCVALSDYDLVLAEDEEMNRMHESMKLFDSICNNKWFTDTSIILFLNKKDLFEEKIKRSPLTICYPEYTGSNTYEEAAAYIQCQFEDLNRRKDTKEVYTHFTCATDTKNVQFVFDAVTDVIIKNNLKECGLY
Sa growth 42C second temp = second read-out of Sa growth 42C, no call of its own (marks repeat the call); relative growth, %; measured here: growth at 30 °C;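 optical density after 20 h as mean of two plates; 100% = untreated growth and lower means inhibition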
Starred values were filed as active, the others as inactive; · = not tested or not shown.

Values run as follows: HCMV NEC inh	GIV Gai3 FP	Sa growth 42C	Sa growth 42C second temp
1. O=C(OCC(=O)N1CCCc2ccccc21)c1cc(S(=O)(=O)N2CCOCC2)ccc1O
→ -11	·	89	91
2. Oc1cccc(C(c2ccc3cccnc3c2O)N2CCCC2)c1 (centres undefined)
→ -26	·	37	24
3. C=CC(=O)Nc1sc2c(c1C(=O)OCC)CCCC2
→ -4	·	83	77
4. CSc1scc2c1-c1nn(C(C)=O)cc1CC2
→ -2	108	114	87
5. CC1CCN(S(=O)(=O)c2ccc3ncn(CC(=O)Nc4ccc(F)cc4)c(=O)c3c2)CC1
→ -15	99	·	·
6. Cc1cccc(C(=O)OC(C)c2nnc(-c3ccccc3)o2)c1O (centres undefined)
→ -20	·	97	84
7. C=CCN(C(=O)c1sc2nc(CSC)[nH]c(=O)c2c1C)c1nc2c(s1)CCCC2
→ 0	·	104	91
8. Cc1ccccc1Nc1nc(N)nc(Cn2cnc3sc4c(c3c2=O)CCC4)n1
→ -12	·	108	78
9. O=C(N[C@@H]1C[C@H]2CC[C@@H]1C2)c1ccc(CSc2ccccc2)cc1
→ -19	·	81	87
10. N#Cc1nnn2c1nc(N)c1c(F)cccc12
→ -36	107	92	83
11. COc1ccc(-n2c(SCC(=O)NCc3ccccc3)nc3c([nH]c4ccccc43)c2=O)cc1
→ ·	101	110	82
12. CC(Cc1ccccc1)NC(=O)c1cnc[nH]1 (centres undefined)
→ 2	·	109	82
13. CCn1nnc2cc(C(=O)NC(C)c3ccc(Cl)cc3)ccc21 (centres undefined)
→ -13	·	114	92
14. CCC(C)NS(=O)(=O)c1ccc2c(c1)CCN2C(=O)NC (centres undefined)
→ -9	99	·	·
15. COc1ccccc1N(Cc1nc2nc(C)cc(=O)n2[nH]1)C(=O)COc1ccc(Cl)cc1
→ 4	103	·	·
16. O=C(CN(Cc1ccco1)S(=O)(=O)/C=C/c1ccccc1)Nc1ccc2c(c1)OCO2
→ -17	·	78	87
17. COCCCNC(=O)CCC(=O)N1Cc2ccccc2Oc2ncccc21
→ ·	106	86	90
18. CC(=O)c1cccc(NC(=O)c2oc(=O)c3ccccc3c2-c2ccccc2)c1
→ ·	100	100	98
19. Cc1nn(C(=O)c2ccccc2)c2c1C(=O)CC(C)(C)C2
→ -27	99	113	102
20. NS(=O)(=O)c1ccc(CCNC(=O)C2CCCN(c3nc4ccccc4[nH]3)C2)cc1 (centres undefined)
→ -23	96	·	·
21. CCCN(C(=O)Cn1nc(Cc2ccncc2)c2ccccc2c1=O)c1ccccc1C
→ -44	103	114	90
22. Cc1ccc(OCC(=O)Nc2ccc(C(=O)OCc3cc(=O)n4nc(C5CC5)sc4n3)cc2)cc1
→ ·	108	96	90
23. COC(=O)c1cc(-c2cccc(OC)c2)on1
→ ·	102	73	88
24. CN(C)c1oc(-c2ccccc2F)nc1C#N
→ -24	100	93	92
25. CCN(CC)c1ccc(NC(=O)CN(C)S(=O)(=O)c2cccc3nsnc23)c(C)c1
→ -69	109	100	104
26. Cc1ccc(OCc2nc(-c3ccc(C(=O)N4CCc5ccccc54)cc3)oc2C)cc1
→ -30	99	112	85
27. COc1ccccc1C(=O)NCc1ccc2c(c1)CCN2C(=O)c1ccncc1
→ ·	104	91	78
28. Cc1ccc(-n2ccn3c(=O)[nH]nc3c2=O)cc1
→ -39	101	·	·
29. COc1cccc(Cn2c(=O)cc(C)c3c(C)nn(-c4ccc(C)cc4)c32)c1
→ ·	100	101	88
30. O=C(CSc1nnnn1C1CCCC1)N(c1ccccc1)C1CCCCC1
→ -14	·	83	96
31. O=S1(=O)CC(O)C(NC2CCNCC2)C1 (centres undefined)
→ -8	98	97	85
32. Cc1cccc2cc(CC3CC(c4ccccc4)=NN3C(=O)CCC(=O)O)c(Cl)nc12 (centres undefined)
→ -5	107	·	·
33. CCOC(=O)c1cccc(Nc2nc(-c3ccccc3)no2)c1
→ -16	100	98	93
34. O=C(Cc1c(Sc2ccccc2)[nH]c2ccccc12)NCc1cccc(F)c1
→ -21	116	·	·
35. CCCc1cc(=O)[nH]c(-n2nc(C)cc2NC(=O)c2ccc(C)c(C)c2)n1
→ -4	97	·	·
36. Cn1cc(SCC(=O)NCc2ccc3c(c2)OCO3)c2ccccc21
→ 5	101	100	77
37. CC(c1nnc(-c2ccccc2)o1)N1CCC(c2nc3ccccc3s2)CC1 (centres undefined)
→ -12	·	82	95
38. Cn1c(=O)c2c(nc(Sc3nnc(N)s3)n2C)n(C)c1=O
→ ·	105	114	91
39. COc1ccc(CNC(=O)c2cc3c(s2)-c2c(C)nn(-c4ccccc4)c2CC3)cc1
→ -20	105	·	·
40. COc1ccc(-c2nnc3n(CCc4ccccc4)c(=O)c4ccccc4n23)c(O)c1
→ -5	101	91	80
41. CCC(C)NC(=O)Cn1ncc2c([nH]c3ccc(C)cc32)c1=O (centres undefined)
→ ·	101	90	84
42. CS(=O)(=O)c1ncc(CO)n1Cc1ccccc1
→ -31	106	105	97
43. CCOC(=O)C(CC)Sc1nnc(-c2ccc(C)cc2)n1C (centres undefined)
→ -13	99	90	89
44. Cc1ccc(S(=O)(=O)N2CCC(C)CC2)cc1-c1nnc2c3ccccc3c(C)nn12
→ -4	102	·	·
45. O=C1C(=O)N(C2CCN(C(=O)c3ccc4c(c3)OCO4)CC2)CCN1Cc1cccc(F)c1
→ -10	100	·	·
46. COc1cccc(N2CCN(C(=O)C3CCN(S(=O)(=O)c4cn(C)c(C)n4)CC3)CC2)c1
→ 26	106	·	·
47. CC(C)CN(CC(C)C)S(=O)(=O)c1ccc(C(=O)Nc2sc3c(c2C(N)=O)CC(C)(C)NC3(C)C)cc1
→ ·	100	104	97
48. COc1ccc(CNc2nc3c(-c4cccc(F)c4)nnn3c3ccccc23)cc1
→ -37	104	105	86
49. Cc1nc(-c2ccccc2)sc1-c1ccc(SCC(=O)NCc2ccccc2Cl)nn1
→ ·	108	97	78
50. O=C(NCC1CCCO1)c1ccc2nc(-c3ccccc3)c(-c3ccccc3)nc2c1 (centres undefined)
→ -6	104	119	93
51. COc1ccccc1N1CCN(c2ccc3ccccc3n2)CC1
→ -6	·	88	82
52. CC(C)N(Cc1ccccc1)C(=O)Nc1ccc(C(F)(F)F)cc1
→ -37	110	75	78
53. CCN(CC)c1nc(N)c(C#N)c(C(C#N)Cc2ccccc2)c1C#N (centres undefined)
→ -12	·	86	88
54. COc1cc(C(=O)Nc2ccc(N3CCOCC3)cc2)cc(CN2C(=O)c3ccccc3C2=O)c1OC
→ 5	·	84	89
55. CCC(Sc1nnc2sc3ccccc3n12)C(=O)OC (centres undefined)
→ ·	100	95	87
56. CCOc1ccc(CC(=O)NCCc2csc3nc(-c4ccccc4C)nn23)cc1
→ -14	96	·	·
57. NNC(=O)c1cc(CSc2ccc(Cl)cc2)on1
→ -30	105	104	86
58. N#CCCSc1ccccc1NC(=O)c1ccc2ncsc2c1
→ -11	98	83	62
59. Cc1cccc(NC(=O)CN2C(=O)c3ccccc3S2(=O)=O)n1
→ 14	102	98	104
60. COc1cc2c(cc1OC)C1=C(C#N)CCC(=NC(=O)c3ccco3)N1CC2
→ -32	109	106	93

Some of the entries so far, as tab-separated lines.
item	compound	HCMV NEC inh	GIV Gai3 FP	Sa growth 42C	Sa growth 42C second temp
36	Cn1cc(SCC(=O)NCc2ccc3c(c2)OCO3)c2ccccc21	5	101	100	77
37	CC(c1nnc(-c2ccccc2)o1)N1CCC(c2nc3ccccc3s2)CC1 (centres undefined)	-12	·	82	95
38	Cn1c(=O)c2c(nc(Sc3nnc(N)s3)n2C)n(C)c1=O	·	105	114	91
39	COc1ccc(CNC(=O)c2cc3c(s2)-c2c(C)nn(-c4ccccc4)c2CC3)cc1	-20	105	·	·
40	COc1ccc(-c2nnc3n(CCc4ccccc4)c(=O)c4ccccc4n23)c(O)c1	-5	101	91	80
41	CCC(C)NC(=O)Cn1ncc2c([nH]c3ccc(C)cc32)c1=O (centres undefined)	·	101	90	84
42	CS(=O)(=O)c1ncc(CO)n1Cc1ccccc1	-31	106	105	97
43	CCOC(=O)C(CC)Sc1nnc(-c2ccc(C)cc2)n1C (centres undefined)	-13	99	90	89
44	Cc1ccc(S(=O)(=O)N2CCC(C)CC2)cc1-c1nnc2c3ccccc3c(C)nn12	-4	102	·	·
45	O=C1C(=O)N(C2CCN(C(=O)c3ccc4c(c3)OCO4)CC2)CCN1Cc1cccc(F)c1	-10	100	·	·
46	COc1cccc(N2CCN(C(=O)C3CCN(S(=O)(=O)c4cn(C)c(C)n4)CC3)CC2)c1	26	106	·	·
47	CC(C)CN(CC(C)C)S(=O)(=O)c1ccc(C(=O)Nc2sc3c(c2C(N)=O)CC(C)(C)NC3(C)C)cc1	·	100	104	97
48	COc1ccc(CNc2nc3c(-c4cccc(F)c4)nnn3c3ccccc23)cc1	-37	104	105	86
49	Cc1nc(-c2ccccc2)sc1-c1ccc(SCC(=O)NCc2ccccc2Cl)nn1	·	108	97	78
50	O=C(NCC1CCCO1)c1ccc2nc(-c3ccccc3)c(-c3ccccc3)nc2c1 (centres undefined)	-6	104	119	93
51	COc1ccccc1N1CCN(c2ccc3ccccc3n2)CC1	-6	·	88	82
52	CC(C)N(Cc1ccccc1)C(=O)Nc1ccc(C(F)(F)F)cc1	-37	110	75	78
53	CCN(CC)c1nc(N)c(C#N)c(C(C#N)Cc2ccccc2)c1C#N (centres undefined)	-12	·	86	88
54	COc1cc(C(=O)Nc2ccc(N3CCOCC3)cc2)cc(CN2C(=O)c3ccccc3C2=O)c1OC	5	·	84	89
55	CCC(Sc1nnc2sc3ccccc3n12)C(=O)OC (centres undefined)	·	100	95	87
56	CCOc1ccc(CC(=O)NCCc2csc3nc(-c4ccccc4C)nn23)cc1	-14	96	·	·
57	NNC(=O)c1cc(CSc2ccc(Cl)cc2)on1	-30	105	104	86
58	N#CCCSc1ccccc1NC(=O)c1ccc2ncsc2c1	-11	98	83	62
59	Cc1cccc(NC(=O)CN2C(=O)c3ccccc3S2(=O)=O)n1	14	102	98	104
60	COc1cc2c(cc1OC)C1=C(C#N)CCC(=NC(=O)c3ccco3)N1CC2	-32	109	106	93

(next part)
Values run as follows: HCMV NEC inh	GIV Gai3 FP	Sa growth 42C	Sa growth 42C second temp
61. Cc1cc(C)c(CSc2nnc(C)s2)c(C)c1
→ 3	·	89	90
62. COc1ccc(Cl)cc1C(=O)Nc1ccc2oc(-c3ccc(C(C)(C)C)cc3)nc2c1
→ -39	103	91	90
63. COc1cc(OC)c(NC(=O)Nc2cc3c(cc2N2CCCC2)n(C)c(=O)n3C)cc1Cl
→ 6	97	·	·
64. COc1ccc(OC)c(CNc2sc3c(c2C(=O)Nc2cc(OC)ccc2OC)CCCC3)c1
→ ·	99	92	80
65. O=S(=O)(NC1CCCC1)c1ccc(-c2nnc(C3CCC3)o2)s1
→ -43	108	·	·
66. COc1ccccc1N1CCN(C(=O)c2cnn(-c3ccc(C)c(C)c3)c2C2CCN(C(=O)OC(C)(C)C)CC2)CC1
→ ·	108	120	96
67. CCC(C)c1ccc(OCC(=O)Nc2ccc(-c3nc4ncccc4o3)cc2)cc1 (centres undefined)
→ -30	94	94	85
68. Cc1ccc(Cl)c(NC(=O)Nc2csc3c2CCCC3)c1
→ -1	93	99	91
69. O=C(O)CCC(=O)NCC1OCCc2ccccc21 (centres undefined)
→ 1	100	81	86
70. O=C(NCCc1ccc(Cl)cc1)c1cc(-c2ccccc2)n[nH]1
→ ·	101	104	91
71. O=C(O)C1C2C=CC(C2)C1C(=O)Nc1ccccc1O (centres undefined)
→ -9	·	91	79
72. Cc1cc(C)c(Cn2c3ccccc3c3cnn(CC(=O)N4CCCCCC4)c(=O)c32)c(C)c1
→ 11	97	92	93
73. O=C(CSc1nc2c([nH]c3ccccc32)c(=O)n1-c1ccccc1)c1ccc(Cl)cc1
→ ·	103	117	91
74. CC(C)C(NC(=O)c1ccccc1)C(=O)O (centres undefined)
→ -23	98	102	94
75. CC1CCCC(NC(=O)CCCn2c3ccccc3c3cn[nH]c(=O)c32)C1C (centres undefined)
→ ·	104	122	85

In the list so far, these contain a furan ring, fused or not.
Values run as follows: HCMV NEC inh	GIV Gai3 FP	Sa growth 42C	Sa growth 42C second temp
16. O=C(CN(Cc1ccco1)S(=O)(=O)/C=C/c1ccccc1)Nc1ccc2c(c1)OCO2
→ -17	·	78	87
60. COc1cc2c(cc1OC)C1=C(C#N)CCC(=NC(=O)c3ccco3)N1CC2
→ -32	109	106	93

Assay outcomes (PubChem)
